Bioassay records deposited in PubChem by Broad Institute.
BJeLR viab HTS: lowers viability of BJeLR cells | 30,000 tested, 0.64% active | AID 2275 | BJeLR fibroblasts viability, CellTiterGlo ATP luminescence, 48 h; HRASV12, hTERT and SV40 LT/ST transformed | viability loss activity score, % (concentration not given with the values); in the data active = viability loss activity score above about 50%; about a fifth of its hits are not listed in these tables;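 note: higher score means fewer live cells and less ATP luminescence; stock transfer was 50 or 100 nL into about 30 µL; 0% = vehicle wells and 100% = a reference killing control; one replicate is shown; the record names a cut of 85%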
A1 inhib: inhibitors of A1. MEF A1-2A-BIM cells, caspase-Glo luminescence, 3 h; percent of clofoctol signal, DMSO as zero. caspase activation, % (test concentration not listed). 21,000 tested, 0.51% active;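 active = most replicate scores above 10, or exactly half above 10 with mean activity above 10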;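 note: effector caspase 3 and 7 activity cleaving a DEVD luciferin substrate; 50 nL library stock added to about 30 µL; numbers are from one replicate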
* = called active by the depositor; . = not tested or not shown.

SMILES	BJeLR viab HTS	A1 inhib
C[C@@H]1CN([C@H](C)CO)C(=O)c2cccc(N(C)C)c2O[C@@H]1CN(C)S(C)(=O)=O	-2.0	.
C[C@H](CO)N1C[C@H](C)[C@@H](CN(C)S(=O)(=O)c2cccs2)Oc2ccc(NS(C)(=O)=O)cc2C1=O	-1.3	0.5
CC(C)COC(=O)C(C)Nc1n[nH]c(=S)[nH]c1=O (stereo not drawn)	1.3	0.5
COc1ccc(-c2c(C)oc3cc(OC)ccc23)cc1	-2.2	.
CN(Cc1ccccc1)c1nc2c(S(=O)(=O)c3ccccc3)nnn2c2ccccc12	-2.3	.
COc1ccccc1NC(=O)Cn1c(=O)n(Cc2ccccn2)c(=O)c2sc3ccccc3c21	-2.0	0.1
C=C1CC[C@@H](C)[C@](C)(CCc2ccoc2)C/C=C\C=C/1C(=O)O	-0.2	-0.1
C[C@H](CO)N1C[C@H](C)[C@@H](CN(C)Cc2ccc(C(F)(F)F)cc2)Oc2c(NC(=O)C3CCOCC3)cccc2C1=O	-3.9	.
C[C@@H]1CN([C@H](C)CO)C(=O)c2cccc(NC(=O)C3CCCCC3)c2O[C@@H]1CN(C)Cc1ccc(Cl)c(Cl)c1	-8.2	.
C[C@H](CO)N1C[C@H](C)[C@H](CN(C)Cc2ccc(C(=O)O)cc2)Oc2ccc(NC(=O)Cn3cnnn3)cc2C1=O	3.2	-0.2
Fc1ccc(Nc2nc(Nc3ccc(F)cc3)nc(N3CCCCC3)n2)cc1	0.3	0.4
CC(C)NS(=O)(=O)Cc1ccccc1	0.7	-0.2
CN(C)/C=N/S(=O)(=O)c1ccc(-n2nc(C(F)(F)F)cc2-c2cccs2)cc1	-1.0	-0.9
COC(=O)/C=C1\NC2CCCCC2NC1=O (stereo not drawn)	1.6	-0.4
CCCCC(=O)O[C@H]1CCC2C3CCc4cc(O)ccc4C3CC[C@@]21C (stereo partly drawn)	-1.0	0.7
COc1ccc(NC(=O)N(C)C[C@@H]2Oc3ccc(NC(=O)Cc4cn(C)c5ccccc45)cc3C(=O)N([C@H](C)CO)C[C@H]2C)cc1	0.6	0.7
CC(C)NC(=O)N(C)C[C@@H]1Oc2c(NC(=O)c3ccncc3)cccc2C(=O)N([C@@H](C)CO)C[C@H]1C	3.7	.
COc1cccc(NC(=O)COc2ccc(N3CC(C(=O)NCC(C)C)CC3=O)cc2)c1 (stereo not drawn)	-5.0	1.0
CC(C)NC(=O)Nc1cccc2c1O[C@H](CN(C)CC1CCCCC1)[C@H](C)CN([C@H](C)CO)C2=O	4.7	.
CC(=O)N[C@@H](CSC/C=C(\C)CCC=C(C)C)C(=O)O	0.0	0.2
Fc1ccc(-n2c(C34CC5CC(CC(C5)C3)C4)n[nH]c2=S)cc1	-5.9	.
Cc1noc(C)c1NC(=O)Nc1ccc2c(c1)C(=O)N([C@@H](C)CO)C[C@@H](C)[C@H](CN(C)S(=O)(=O)c1ccc(Cl)cc1)O2	-4.4	-0.4
COc1cc(C(C)CC(C)(O)CC(=O)O)oc(=O)c1C (stereo not drawn)	-2.6	0.4
Cn1nc(C(C)(C)C)c(NC(=O)c2ccc(F)cc2)c1C(C)(C)C	-1.6	1.3
O=C(NC1CCS(=O)(=O)C1)c1c(Cl)cccc1Cl (stereo not drawn)	-2.1	0.6
Cc1ccc(C2=NCN(c3ccc(C(=O)O)cc3)C(=S)N2)cc1	-2.7	-0.9
COc1ccc(/C=C2\CCC(C3CCCC3)C2=O)cc1Cn1cccn1 (stereo not drawn)	-6.3	.
CC(C)COc1ccc(S(=O)(=O)n2cc(F)c(=O)[nH]c2=O)cc1	0.5	.
CC1(C)N=C(C(=O)c2ccccc2)N(O)C1(C)O (stereo not drawn)	1.4	0.8
O=C(CSC(=S)N1CCOCC1)c1cc(Br)cc(Br)c1O	-7.3	0.2
c1ccc2c(c1)NC(c1ccc3c(c1)CCO3)n1cccc1-2 (stereo not drawn)	-8.1	-0.8
C[C@H]1CN([C@@H](C)CO)C(=O)c2cc(NS(=O)(=O)c3ccc(Cl)cc3)ccc2O[C@@H]1CN(C)C	0.0	-0.5
CNC(=O)C1CCC(CNS(=O)(=O)c2ccc(C)cc2)CC1 (stereo not drawn)	3.7	0.3
COc1ccc(S(=O)(=O)N(C)C[C@H]2Oc3ccc(NS(=O)(=O)c4cccs4)cc3C(=O)N([C@H](C)CO)C[C@@H]2C)cc1	4.3	-0.3
CC(=O)N1CCOc2cc(S(=O)(=O)N3CCCCC3C)ccc21 (stereo not drawn)	-9.7	0.6
COc1ccc(NC(=O)N(C)C[C@H]2Oc3c(NC(=O)Nc4ccc5c(c4)OCO5)cccc3C(=O)N([C@@H](C)CO)C[C@@H]2C)cc1	2.7	.

23 entries out of the list, arranged by molecular weight, smallest number first:
SMILES	BJeLR viab HTS	A1 inhib
CC(C)NS(=O)(=O)Cc1ccccc1	0.7	-0.2
CC1(C)N=C(C(=O)c2ccccc2)N(O)C1(C)O (stereo not drawn)	1.4	0.8
CC(C)COC(=O)C(C)Nc1n[nH]c(=S)[nH]c1=O (stereo not drawn)	1.3	0.5
COc1cc(C(C)CC(C)(O)CC(=O)O)oc(=O)c1C (stereo not drawn)	-2.6	0.4
CC(=O)N[C@@H](CSC/C=C(\C)CCC=C(C)C)C(=O)O	0.0	0.2
CNC(=O)C1CCC(CNS(=O)(=O)c2ccc(C)cc2)CC1 (stereo not drawn)	3.7	0.3
Fc1ccc(-n2c(C34CC5CC(CC(C5)C3)C4)n[nH]c2=S)cc1	-5.9	.
Cn1nc(C(C)(C)C)c(NC(=O)c2ccc(F)cc2)c1C(C)(C)C	-1.6	1.3
CC(=O)N1CCOc2cc(S(=O)(=O)N3CCCCC3C)ccc21 (stereo not drawn)	-9.7	0.6
CC(C)COc1ccc(S(=O)(=O)n2cc(F)c(=O)[nH]c2=O)cc1	0.5	.
COc1ccc(/C=C2\CCC(C3CCCC3)C2=O)cc1Cn1cccn1 (stereo not drawn)	-6.3	.
CCCCC(=O)O[C@H]1CCC2C3CCc4cc(O)ccc4C3CC[C@@]21C (stereo partly drawn)	-1.0	0.7
Fc1ccc(Nc2nc(Nc3ccc(F)cc3)nc(N3CCCCC3)n2)cc1	0.3	0.4
CN(C)/C=N/S(=O)(=O)c1ccc(-n2nc(C(F)(F)F)cc2-c2cccs2)cc1	-1.0	-0.9
CN(Cc1ccccc1)c1nc2c(S(=O)(=O)c3ccccc3)nnn2c2ccccc12	-2.3	.
COc1ccccc1NC(=O)Cn1c(=O)n(Cc2ccccn2)c(=O)c2sc3ccccc3c21	-2.0	0.1
CC(C)NC(=O)Nc1cccc2c1O[C@H](CN(C)CC1CCCCC1)[C@H](C)CN([C@H](C)CO)C2=O	4.7	.
C[C@H]1CN([C@@H](C)CO)C(=O)c2cc(NS(=O)(=O)c3ccc(Cl)cc3)ccc2O[C@@H]1CN(C)C	0.0	-0.5
CC(C)NC(=O)N(C)C[C@@H]1Oc2c(NC(=O)c3ccncc3)cccc2C(=O)N([C@@H](C)CO)C[C@H]1C	3.7	.
C[C@H](CO)N1C[C@H](C)[C@H](CN(C)Cc2ccc(C(=O)O)cc2)Oc2ccc(NC(=O)Cn3cnnn3)cc2C1=O	3.2	-0.2
C[C@H](CO)N1C[C@H](C)[C@@H](CN(C)Cc2ccc(C(F)(F)F)cc2)Oc2c(NC(=O)C3CCOCC3)cccc2C1=O	-3.9	.
COc1ccc(NC(=O)N(C)C[C@H]2Oc3c(NC(=O)Nc4ccc5c(c4)OCO5)cccc3C(=O)N([C@@H](C)CO)C[C@@H]2C)cc1	2.7	.
COc1ccc(NC(=O)N(C)C[C@@H]2Oc3ccc(NC(=O)Cc4cn(C)c5ccccc45)cc3C(=O)N([C@H](C)CO)C[C@H]2C)cc1	0.6	0.7

Continuation:
SMILES	BJeLR viab HTS	A1 inhib
COc1cc(-c2oc3cc(O)cc(O)c3c(=O)c2O[C@@H]2O[C@H](CO)[C@@H](O)[C@H](O)[C@H]2O)ccc1O[C@@H]1O[C@H](CO)[C@@H](O)[C@H](O)[C@H]1O	-2.6	-0.3
O=C1CC(c2cccs2)SC(N(c2ccccc2)c2ccccc2)=N1 (stereo not drawn)	-9.0	0.4
O=C(OCn1nnc2ccccc2c1=O)C1(c2ccc(Cl)cc2)CCCC1	-7.0	.
O=C(NC1CCCCCCC1)C1CCCN(S(=O)(=O)c2cnc[nH]2)C1 (stereo not drawn)	-9.2	.
Cc1noc(C)c1NC(=O)Nc1ccc2c(c1)C(=O)N([C@@H](C)CO)C[C@H](C)[C@@H](CN(C)C)O2	-0.9	-0.7
C[C@@H]1CN([C@@H](C)CO)C(=O)c2cc(NS(=O)(=O)c3cccs3)ccc2O[C@@H]1CN(C)Cc1ccc(Cl)c(Cl)c1	6.0	0.4
COc1ccc(CCNC(=O)C2CC2(c2ccc(C)cc2)c2ccc(C)cc2)cc1OC (stereo not drawn)	3.2	-0.8
COc1ccc(NC(=O)CSc2cn(Cc3ccc(Cl)cc3)c3ccccc23)cc1	-0.9	-0.2
S=C(Nc1cccc(Cl)c1)Nc1cc(-c2ccc(Cl)cc2)[nH]n1	6.0	.
C[C@H](CO)N1C[C@H](C)[C@@H](CN(C)C(=O)NC2CCCCC2)Oc2c(NC(=O)c3ccncc3)cccc2C1=O	-2.8	.
COc1ccc(NC(=O)N(C)C[C@@H]2Oc3c(NC(=O)c4ccc(-c5nccs5)cc4)cccc3C(=O)N([C@H](C)CO)C[C@H]2C)cc1	1.7	.
C[C@@H]1CN([C@H](C)CO)C(=O)c2cccc(NC(=O)Nc3ccc(C(F)(F)F)cc3)c2O[C@@H]1CN(C)Cc1ccc(-c2ccccc2)cc1	-4.2	.
C[C@H]1CN([C@@H](C)CO)C(=O)c2cc(NC(=O)Cc3cn(C)c4ccccc34)ccc2O[C@H]1CN(C)C(=O)Nc1cccc2ccccc12	0.7	0.7
CCCCN(CC)S(=O)(=O)c1ccc(C(=O)Nc2ccccc2-c2nc3ccccc3[nH]2)cc1	-2.8	.
O=C(NC(=O)N1CCOCC1)c1cc(Br)cc(Br)c1	7.0	0.9
CN1C(=O)CC(C(=O)NCCc2ccccc2)SC1=Nc1ccc(I)cc1 (stereo not drawn)	-5.8	-0.6
CCNc1nc(Oc2ccc(C(=O)OC)cc2)nc(SC)n1	2.8	0.5
CN(C)C(=O)n1c(SCc2ccccc2)nnc1-c1ccc(C(C)(C)C)cc1	1.9	1.1
O=C(c1cccc2c1-c1ccccc1C2)N1CCCCC1	2.9	1.8
Cc1nc(SCSc2nc3ccccc3s2)nc2c1CCCC2	2.3	-5.5
CCn1c(=O)c(=O)n(CC)c2cc(S(=O)(=O)NCc3cccs3)ccc21	0.9	0.4
C[C@@H]1CN([C@H](C)CO)C(=O)c2cccc(NS(=O)(=O)c3ccccc3)c2O[C@@H]1CN(C)C(=O)Nc1ccc2c(c1)OCO2	23	.
COc1ccc(S(=O)(=O)N(C)C[C@@H]2Oc3ccc(NS(=O)(=O)c4cn(C)cn4)cc3C(=O)N([C@@H](C)CO)C[C@H]2C)cc1	-2.8	0.1
C[C@@H]1CN([C@H](C)CO)C(=O)c2cc(NC(=O)Cc3cn(C)c4ccccc34)ccc2O[C@H]1CN(C)Cc1ccc(Oc2ccccc2)cc1	-2.1	0.4
CCOC(=O)c1cc(-c2ccnn2S(=O)(=O)c2cccc(C(F)(F)F)c2)on1	-3.8	0.9
COc1ccc(CC(C)CC(=O)Nc2ccc(I)cc2)cc1 (stereo not drawn)	-5.4	.
CCOC(=O)C(C)Oc1cc2oc(=O)c3c(c2cc1Cl)CCCC3 (stereo not drawn)	-1.5	0.0
C[C@H](CO)N1C[C@H](C)[C@@H](CN(C)Cc2ccc(C(F)(F)F)cc2)Oc2ccc(NC(=O)Nc3ccccc3)cc2C1=O	1.1	-0.7
CC(C)(C)SCCNc1nc(Sc2ccc(Cl)cc2)nc(N2CCSCC2)n1	2.4	0.5
C[C@@H]1CN([C@H](C)CO)C(=O)c2cc(NS(C)(=O)=O)ccc2O[C@H]1CN(C)C(=O)Nc1cccc2ccccc12	-0.1	0.0
C[C@H](CO)N1C[C@H](C)[C@H](CN(C)C(=O)Nc2ccc(C(F)(F)F)cc2)Oc2c(NC(=O)c3ccc(-c4nccs4)cc3)cccc2C1=O	1.8	.
C[C@H](CO)N1C[C@H](C)[C@@H](CN(C)S(=O)(=O)c2ccccc2)Oc2ccc(NS(=O)(=O)c3cn(C)cn3)cc2C1=O	-3.0	-0.5
O=C(NC(Nc1ccc(Cl)cc1)C(=O)c1ccccc1)c1ccccc1 (stereo not drawn)	2.8	0.7

2 entries picked at random from those above, as already listed:
SMILES	BJeLR viab HTS	A1 inhib
C[C@@H]1CN([C@H](C)CO)C(=O)c2cc(NS(C)(=O)=O)ccc2O[C@H]1CN(C)C(=O)Nc1cccc2ccccc12	-0.1	0.0
COc1ccc(NC(=O)N(C)C[C@@H]2Oc3c(NC(=O)c4ccc(-c5nccs5)cc4)cccc3C(=O)N([C@H](C)CO)C[C@H]2C)cc1	1.7	.

Some of the compounds tested; the hit share may differ from the screen's.
